Mtb hypoxia inh: inhibitors of hypoxia-regulated fluorescent reporter in Mycobacterium tuberculosis; M. tuberculosis hypoxia-regulated fluorescent reporter, fluorescence; fluorescence inhibition, % (no concentration beside the values); 300,000 tested, 0.1% active;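 active means 35 to 45% if threefold the growth effect, above 45% if 1.5-fold the growth effect; inactive means the rest, general growth blockers included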;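 further: wells of about 50 µL received 100 nL stock; 0% = vehicle wells and 100% = reference inhibitor wells; whole bacteria with a GFP reporter of the hypoxia response; strong numbers were not always called active; many hits fall short of the cut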
PrP UTR inh: inhibition of PrP 5' UTR reporter expression; 340,000 tested, 0.35% active; cell-based PrP 5' UTR mRNA reporter, plate reader; inhibition, % (test concentration not listed); AID 488862;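 active means every replicate at 50% or more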;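 further: 0 = median of the neutral control wells; tested in H4 reporter cells; numbers are from one replicate; inactives centre near -14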
Sa RN4220 lethal: kills Staphylococcus aureus RN4220; S. aureus RN4220 growth, OD600, 16 h; 330,000 tested, 0.33% active; AID 1259311; inhibition, % (test concentration not listed);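 active means z-score of -3 or lower and OD600 up to 0.18 on both plates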;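 further: plate controls were untreated cells for no effect and reference antibiotic for full effect; stock transfer was 100 nL into about 80 µL; one replicate is shown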
Bead autofluor: flagged as autofluorescent in microsphere protease counterscreen; compound autofluorescence counterscreen, microsphere flow cytometry; hits give high values; fluorescence intensity (test concentration not listed); 360,000 tested, 3.1% active; AID 624483;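 active means at least 3 SD above the mean of all compounds, about 16000 in these data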;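 further: 100 nL of 1 mM stock went into each well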
ugtP null kill: compounds lethal to S. aureus RN4220 ugtP deletion mutant; OD600 growth, 16 h; some inactives read as strong as hits; 330,000 tested, 0.54% active; growth inhibition, % (concentration not given with the values);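 active means z-score under -3 and OD600 up to 0.15 on both plates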;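 further: plate controls were untreated wells for no effect and antibiotic for full effect; wells of about 80 µL received 100 nL stock; the first replicate is given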
BJeLR lethal: kills HRASV12-expressing BJeLR cells | AID 1554 | BJeLR (HRASV12) viability, CellTiter-Glo ATP luminescence, 48 h; reference of the scale not given here | inhibition, % (concentration not given with the values) | 300,000 tested, 0.17% active;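 active means replicate mean above 50%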;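 further: 50 nL library stock added to about 25 µL; numbers are from one replicate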
Mtb hypoxia inh growth: further read-out of Mtb hypoxia inh, marked with its call; growth inhibition, %; measured here: M. tuberculosis growth (absorbance);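 0% = vehicle and 100% = reference antibiotic; read after six days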
The depositor's hits bear a star; nt = not tested or not shown.

SMILES	Mtb hypoxia inh	Mtb hypoxia inh growth	PrP UTR inh	Sa RN4220 lethal	Bead autofluor	ugtP null kill	BJeLR lethal
CC1CCCN(c2c3c(nc4ccccc24)CCCC3)C1 (configuration not stated)	3	-1	-13	-2.7	3243	-5	4
CC(NC(=O)C1CCN(C(=O)c2ccc(F)cc2)CC1)c1ccc(-n2ccnc2)cc1 (configuration not stated)	10	-2	-13	1.6	3528	3	nt
Cc1ccc(NC(=O)OCCN2CCN(S(=O)(=O)c3ccc(C)cc3)CCC2=O)cc1	8	8	-1	-6.0	4181	-9	-1
CN(C)S(=O)(=O)N1CCC(Oc2ccc(C(=O)N3C[C@@H]4CCC[C@H]3C4)cc2)CC1	-4	10	-1	-2.1	5590	-5	7
Cc1ccc(CN2CC(C(=O)NCCCn3nc(C)cc3C)CC2=O)cc1 (configuration not stated)	-2	-1	-6	0.8	5661	6	nt
CN(C)c1nc(N)nc(CSc2nc3cc(Cl)ccc3o2)n1	12	-2	-45	3.3	10272	13	2
COc1cc(/C=N/N2CCCCC2)cc([N+](=O)[O-])c1O	nt	nt	-15	nt	4027	nt	-7
O=C(CC(=O)Nc1ccc(Cl)cc1Cl)Nc1ccc(Cl)cc1Cl	-6	6	-31	1.5	3351	9	0
N#CCCN(Cc1cccnc1)C(=S)Nc1ccccc1Cl	9	2	-9	8.4	3250	13	nt
Cc1[nH]c2ccccc2c1C(=O)NS(=O)(=O)Nc1ccc(F)cc1	-2	7	-9	3.8	4413	11	1
Cc1ccc(S(=O)(=O)N=Cc2cc(Br)ccc2O)cc1	-9	4	nt	5.6	nt	3	nt
Cc1cccc(N(C(=O)CNC(=O)c2ccco2)C(C(=O)NC2CCCC2)c2cccnc2)c1C (configuration not stated)	11	5	-4	2.7	5153	0	-8
Cc1cccc(NC(=O)Cn2c(=O)n(CCc3c[nH]c4ccccc34)c(=O)c3cccnc32)c1	1	3	nt	6.8	nt	14	7
CCC1=C(OC(=O)N(CC)CC)N2C(=O)OC(=NCC(=O)OC)[C@]2(Cc2ccccc2)C2C1=CCC1C(=O)N(c3ccccc3)C(=O)C12 (some centres not stated)	10	12	nt	3.9	nt	0	nt
CC(NC(=S)NC1CCCCC1)C(c1cccs1)N1CCOCC1 (configuration not stated)	6	0	-15	3.4	4262	1	7
CC1(C)Cc2ccccc2-c2nnc(-c3ccccn3)n21	4	5	-52	1.8	20079*	6	2
COc1ccc(COc2cc(-c3cccc(OC)c3)nc3ccc(NC(=O)c4ccc(Cl)cc4)cc23)cc1	-3	10	-46	3.5	3850	-1	11
O=C(Cn1nc(-c2ccccc2)oc1=O)OCC(=O)c1ccc(F)c(F)c1	10	4	-17	-1.5	6326	4	nt
COc1ccccc1C(=O)NCc1ccc(-c2nc3ccccc3s2)cc1	9	4	-17	13	1958	1	-1
O=c1[nH]sc2cc(F)ccc12	4	12	-25	98*	2984	87*	0
O=C(NCCN1CCOCC1)C1CC(=O)N(c2cccc(C(F)(F)F)c2)C1 (configuration not stated)	1	-3	-8	1.2	5552	2	nt
CC(C)(C)OC(=O)[C@H](Cc1ccccc1)NC(=O)c1nc[nH]c1C(=O)N[C@@H](Cc1ccccc1)C(=O)OC(C)(C)C	nt	nt	-14	nt	2803	nt	3
O=C(NN1C(=O)c2ccccc2C1=O)C1CCCCC1	nt	nt	-15	1.3	4688	4	-14
COc1cc(OC)cc(C(=O)N(CCCN2C(=O)c3cccc4cccc(c34)C2=O)c2cccc(OC)c2)c1	-3	-2	-8	-9.1	2112	0	-6

Given with two lines to a compound: 11 of the compounds above.
Values run as follows: Mtb hypoxia inh, Mtb hypoxia inh growth, PrP UTR inh, Sa RN4220 lethal, Bead autofluor, ugtP null kill, BJeLR lethal
CCC1=C(OC(=O)N(CC)CC)N2C(=O)OC(=NCC(=O)OC)[C@]2(Cc2ccccc2)C2C1=CCC1C(=O)N(c3ccccc3)C(=O)C12 (some centres not stated)
    10, 12, nt, 3.9, nt, 0, nt
CC(NC(=S)NC1CCCCC1)C(c1cccs1)N1CCOCC1 (configuration not stated)
    6, 0, -15, 3.4, 4262, 1, 7
CC1(C)Cc2ccccc2-c2nnc(-c3ccccn3)n21
    4, 5, -52, 1.8, 20079*, 6, 2
COc1ccc(COc2cc(-c3cccc(OC)c3)nc3ccc(NC(=O)c4ccc(Cl)cc4)cc23)cc1
    -3, 10, -46, 3.5, 3850, -1, 11
O=C(Cn1nc(-c2ccccc2)oc1=O)OCC(=O)c1ccc(F)c(F)c1
    10, 4, -17, -1.5, 6326, 4, nt
COc1ccccc1C(=O)NCc1ccc(-c2nc3ccccc3s2)cc1
    9, 4, -17, 13, 1958, 1, -1
O=c1[nH]sc2cc(F)ccc12
    4, 12, -25, 98*, 2984, 87*, 0
O=C(NCCN1CCOCC1)C1CC(=O)N(c2cccc(C(F)(F)F)c2)C1 (configuration not stated)
    1, -3, -8, 1.2, 5552, 2, nt
CC(C)(C)OC(=O)[C@H](Cc1ccccc1)NC(=O)c1nc[nH]c1C(=O)N[C@@H](Cc1ccccc1)C(=O)OC(C)(C)C
    nt, nt, -14, nt, 2803, nt, 3
O=C(NN1C(=O)c2ccccc2C1=O)C1CCCCC1
    nt, nt, -15, 1.3, 4688, 4, -14
COc1cc(OC)cc(C(=O)N(CCCN2C(=O)c3cccc4cccc(c34)C2=O)c2cccc(OC)c2)c1
    -3, -2, -8, -9.1, 2112, 0, -6

Later entries:
SMILES	Mtb hypoxia inh	Mtb hypoxia inh growth	PrP UTR inh	Sa RN4220 lethal	Bead autofluor	ugtP null kill	BJeLR lethal
COC(=O)C(C)n1cnc2c(nnn2-c2ccc(C)cc2)c1=O (configuration not stated)	6	3	-16	4.7	4765	2	-6
COc1ccccc1Nc1ccc(C(=O)NC2CCCCC2)cn1	12	3	-27	-4.9	8036	-4	2
CC1(C)CC(=O)C(CC2=C(N)CC(C)(C)CC2=O)=C(N)C1	-1	8	-24	5.5	4066	3	-6
COc1ccc(Nc2nc(N3CCOCC3)nc(N3CCOCC3)n2)cc1	-3	-8	22	0.6	3243	1	10
O=c1c2ccccc2nc(SCc2ccncc2)n1CC1CCCO1 (configuration not stated)	2	21	-49	2.2	4288	2	-16
O=C(COC(=O)c1cc(S(=O)(=O)N2CCCC2)ccc1O)Nc1ccc(F)cc1F	5	-1	-18	2.1	8267	1	nt
Cn1c(SCC(=O)NCc2cccs2)nnc1-c1ccncc1	2	5	-8	-1.1	3987	0	-6
CN(C(=O)c1ccc(Br)o1)C1(C)CCS(=O)(=O)C1 (configuration not stated)	7	5	-9	0.6	5400	8	-5
O=C(CSc1nc2ccccc2c(=O)n1CC1CCCO1)Nc1ccccc1 (configuration not stated)	1	-5	-5	2.7	3234	6	1
CCOC(=O)N1CCN(Cc2nc3cc(NC(=O)c4cccs4)ccc3n2CC)CC1	0	3	-19	0.6	5271	10	-5
CCCn1c(CN2CCN(c3cccc(Cl)c3)CC2)nc2c1c(=O)n(C)c(=O)n2C	1	4	-72	12	5835	-6	3
COc1ccc(Br)c(C(=O)OCC(=O)NC2CC2)c1	3	5	0	-2.2	7888	4	nt
COc1ccc(C(=O)Nc2nc3ccccc3s2)cc1	-1	14	19	-0.2	3625	-12	-2
CCN(C(=O)COC(=O)c1cc(C)n(C2CC2)c1C)c1ccccc1	10	11	0	6.5	3677	13	nt
COc1ccc(NS(=O)(=O)c2cc3c(cc2C)N(C)CCO3)cc1	6	4	-7	-11	6254	4	12
O=C(COC(=O)CC1SC(N2CCCC2)=NC1=O)Nc1c(F)c(F)c(F)c(F)c1F (configuration not stated)	3	0	7	5.6	2571	13	nt
CCCCn1c(N)c(N(CCC(C)C)C(=O)c2sc3nc4n(c(=O)c3c2C)CCC4)c(=O)[nH]c1=O	12	8	-18	-1.3	5851	2	-9
CN1CC2CCCC3(C1)C(=O)NC1(CCCCC1)N=C23 (configuration not stated)	nt	nt	29	-0.7	2076	-3	5
COc1ccc(NC(=O)C2CCCNC2)cc1OCC(C)C (configuration not stated)	nt	nt	-21	-1.8	4317	16	-4
CS(=O)(=O)N1CCc2cc(C(=O)N3CCN(c4cccc(Cl)c4)CC3)ccc21	10	3	-12	4.1	5652	3	-9
O=C(O)CSc1nnc(-c2ccccc2)o1	-5	-10	-14	4.0	3108	-3	-3
CCN(CC)c1ccc2cc(-c3nc(-c4ccc(OC)cc4)cs3)c(=O)oc2c1	-131	-4	nt	4.1	nt	-10	nt
COc1ccc(C2C(Oc3ccccc3)C(=O)N2c2ccc(C)c(C)c2)cc1OC (configuration not stated)	13	10	-19	4.9	3278	3	-5
COc1ccccc1/C=C/C(=O)N1CCOCC1	nt	nt	-8	-0.9	4190	5	-6
COc1cc(/C=C/C(=O)O)cc(S(=O)(=O)N2CCc3ccccc3C2)c1OC	12	-14	-21	0.7	4468	15	-7
Cc1ccc(OCC(=O)NNC(=O)C2CCCO2)c(C)c1 (configuration not stated)	-7	-7	-5	2.3	4690	2	0
c1ccc(-c2nc3ccccc3o2)nc1	3	0	-46	19	2870	14	3
CC(Oc1ccc2c3c(c(=O)oc2c1)CCC3)C(=O)N[C@@H](Cc1ccccc1)C(=O)O (some centres not stated)	nt	nt	-40	8.2	5692	-11	-8
O=C(NCCc1c[nH]c2ccccc12)c1ccc(S(=O)(=O)NCc2ccco2)cc1	5	4	-29	2.9	10013	0	-2
O=C(Nc1ccc(F)cc1)N1CC2CC(C1)c1cccc(=O)n1C2 (configuration not stated)	5	9	-1	2.4	9509	3	9
Cc1ccc(-n2c(SCC(=O)Nc3ccc4c(c3)OCO4)nnc2-c2ccccn2)cc1	2	7	nt	4.7	9858	-8	-3
CCn1c(=O)c(C(=O)CN2CC(C)OC(C)C2)c(N)n(Cc2ccccc2)c1=O (configuration not stated)	8	11	-18	2.3	9280	0	-10
CCCCn1c(N)c(N(CC)C(=O)c2cc(CC)c(C)s2)c(=O)[nH]c1=O	-5	-4	-18	5.6	4180	11	3
CN(c1ccccc1)C(c1ccc(F)cc1)c1nnnn1CC1CCCO1 (configuration not stated)	2	6	-16	6.1	16681*	5	-2
CCCCN(CCCC)CCNC(=O)c1cn(CC)c2ccc(S(=O)(=O)N3CCCC3)cc2c1=O	-2	5	-26	-0.8	5041	-1	0
C/C(=N\Nc1ccc(Cl)c(Cl)c1)c1ccc(-n2ccnc2)cc1	nt	nt	-19	nt	2888	nt	-1
Cc1ccc(-n2c(SCC(=O)Nc3cccc(S(N)(=O)=O)c3)nc3ccccc32)cc1	7	10	7	0.9	2095	1	-3
Cc1nccn1CC(=O)N/N=C/c1ccccc1O	nt	nt	-17	nt	4320	nt	3
COc1ccc(-c2nnc(SCC(=O)N3CCCc4ccccc43)o2)cc1OC	8	15	13	3.4	3350	6	-4
CC1=C(NCCc2ccccc2)CCC1=O	nt	nt	-22	-2.5	2503	-2	3
CSc1ccc(CN(C)C(C)C(=O)NCC2CCCCC2)cc1 (configuration not stated)	-1	-3	-28	3.1	4033	-1	-4
CCOC(=O)c1cc(Sc2ccccc2N)cc(C(=O)OCC)n1	0	-6	-27	7.2	5270	-1	11
Cc1ccc(CNC(=O)Nc2ccccc2)n1C	0	1	-24	1.6	4369	5	-1
Cc1ccc(C(=O)Nc2ccccc2N2CCCCC2)o1	18	-1	-32	1.6	5824	-9	7
CC(=O)Nc1ccc(NC(=O)C(C)OC(=O)CCc2nc3ccccc3s2)cc1 (configuration not stated)	11	2	-18	5.5	4218	9	-3
C=CCSc1nc(N)c(C(=O)Nc2ccccc2C)cc1C(N)=O	nt	nt	-21	-1.1	2467	3	-6
O=C(COC(=O)C1CC2C=CC1C2)NCc1ccccc1Cl (configuration not stated)	2	3	-21	3.3	2587	0	3
Brc1ccsc1-c1csc(-c2ccncc2)n1	15	2	-8	4.2	3811	7	4
COc1ccc(OC)c(-c2csc(NC(=O)Cn3[nH]c(=O)c4ccccc4c3=O)n2)c1	-12	11	2	-32	4613	4	-2
COCCCN(CC(=O)NCc1ccccc1)S(=O)(=O)c1ccc(C)cc1	6	2	-26	2.4	3050	5	-4
COc1ccc(NC(=O)c2cc(C(C)C)on2)cc1OC	6	-7	-34	3.0	15618	10	nt
CC(C)COC(=O)NCCCOC(=O)Nc1ccccc1	4	11	-19	2.8	2899	1	-12

Assay outcomes as filed in PubChem.
